EPAC1 ag val = human EPAC1 agonism, validation; O95398; EPAC1 Rap1b BODIPY-GDP exchange, fluorescence; Potency, µM, for the others: max response, positive = active, usual class: activators; 16,000 compounds, 1% hits; AID 1645883; active = well fitted activation curve with a large enough effect; inconclusive = small, poorly fitted or top-dose-only effect; inactive = no such curve, though single readings can be large or run the other way;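 note: nearly all actives have a fitted effect of over 70% in size; series mostly up to about 76 or 150 µM; scaled to a cAMP control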
Target sequence (O95398 whole entry, looked up): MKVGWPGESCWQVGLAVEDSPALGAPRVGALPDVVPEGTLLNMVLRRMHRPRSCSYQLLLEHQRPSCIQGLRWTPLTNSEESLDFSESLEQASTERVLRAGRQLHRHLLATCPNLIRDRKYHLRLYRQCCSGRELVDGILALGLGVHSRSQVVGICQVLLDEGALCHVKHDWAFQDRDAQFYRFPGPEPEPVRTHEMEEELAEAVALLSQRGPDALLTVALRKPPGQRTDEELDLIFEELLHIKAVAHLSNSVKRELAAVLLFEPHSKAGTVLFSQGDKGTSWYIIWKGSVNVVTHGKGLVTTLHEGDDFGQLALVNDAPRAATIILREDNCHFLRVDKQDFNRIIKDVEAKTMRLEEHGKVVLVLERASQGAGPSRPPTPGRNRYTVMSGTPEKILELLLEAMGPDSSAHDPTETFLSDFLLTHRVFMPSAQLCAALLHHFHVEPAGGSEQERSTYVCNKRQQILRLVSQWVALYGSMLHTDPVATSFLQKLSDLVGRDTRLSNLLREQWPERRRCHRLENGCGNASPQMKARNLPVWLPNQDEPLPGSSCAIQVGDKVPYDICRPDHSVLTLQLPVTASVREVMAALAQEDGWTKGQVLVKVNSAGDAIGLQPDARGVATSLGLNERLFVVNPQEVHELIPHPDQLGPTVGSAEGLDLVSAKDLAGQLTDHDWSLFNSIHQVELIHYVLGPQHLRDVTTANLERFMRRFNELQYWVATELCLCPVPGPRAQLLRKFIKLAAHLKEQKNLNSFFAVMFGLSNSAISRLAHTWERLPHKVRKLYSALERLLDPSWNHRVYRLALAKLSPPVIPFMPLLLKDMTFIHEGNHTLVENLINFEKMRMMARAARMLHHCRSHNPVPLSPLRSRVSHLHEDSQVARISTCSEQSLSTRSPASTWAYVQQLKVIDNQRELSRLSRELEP
* hit, by the source's call; ? = inconclusive; & = joins results of further samples; [ ] = dose if it differs, or a comment. % is set by controls: 0 for no effect and ±100 for the full control effect; potency is the fitted concentration of half-maximal effect. A portion of the library (hit frequency here may not be typical).

EPAC1 ag val	canonical_smiles
-39%[inhibitor]	COc1ccccc1-c1ccc2ncnc(NCCN3CCOCC3)c2c1
-71%[inhibitor]	C[C@]12CCC(=O)C=C1CC[C@@H]1[C@@H]2[C@@H](O)C[C@@]2(C)[C@H]1CC[C@]2(O)C(=O)COC(=O)CCC(=O)O
-1%	Cc1ccccc1-c1nc(N2CCN(C)CC2)c2ccccc2n1
13%	COc1ccc2c(c1)OC(C)CN(CCNC(=O)c1cc3cc(F)ccc3[nH]1)C2 (stereo unspecified)
-5%	NCCCCCCCCCCN
-14%	COC(=O)CCC[N+](C)(C)C
24%	O=C(Nc1ccccc1)O[C@@H]1C[C@H]2CCCC(=O)N3CC[C@@H](C1)[C@@H]23
-3%	CN(C)c1ccc(C=O)cc1Cl
-17%	COc1ccccc1CCNc1ncnc2sc(C(=O)N3CCCN(C=O)CC3)c(C)c12
-73%[inhibitor]	N#Cc1cccc(NC(=O)N2CC3(CCN(C(=O)c4ccco4)CC3)C2)c1
-16%	CCC1NC(=O)c2cc(S(N)(=O)=O)c(Cl)cc2N1 (stereo unspecified)
-2%&10%&7%&-1%	Oc1ccc(-c2nc(-c3ccc(F)cc3)c(-c3ccncc3)[nH]2)cc1
1%	O=C(NCC1Cc2cc(F)cc(-c3cnccn3)c2O1)C1COc2ccccc2O1 (stereo unspecified)
2%	COc1ccc(OC)c(-c2ccc(O)c(CN3CCc4c([nH]c5ccccc45)C3)c2)c1
-39%&-13%[inhibitor]	O=C1C(=O)c2ccccc2C(O)=C1C1CCC(c2ccc(Cl)cc2)CC1 (stereo unspecified)
3%	COc1ccc(-c2nc3cnc(OC)nc3n(CCC#N)c2=O)cc1
-3%	CCCCCCCCCCCCCCCC(=O)OC[C@H](O)[C@H]1OC(=O)C(O)=C1O
2%	CN(Cc1ccco1)c1ncncc1-c1cccnc1
-37%&-14%[inhibitor]	NC(=Nc1ccccc1)Nc1ccccc1
-3%	COc1cccc(CNC(=O)c2c(OC)cc(=O)n3c2CCN(C(=O)c2ccc(C)nc2)CC3)c1
-4%	Cc1ncc2c(c1CNC(=O)c1ccc3c(c1)OCO3)CCN(C(=O)c1scc3c1CCCC3)C2
17%	COC(=O)C1=C(C)NC(C)=C(C(=O)OCCSc2ccccc2)[C@@H]1C
?	C=C1C(CCl)(CCl)C2(Cl)C(Cl)C(Cl)C1(Cl)C2(Cl)Cl (stereo unspecified)
-14%	COc1cccc(-c2nccc(NCc3cccs3)n2)c1
-11%	O=c1[nH]c(=O)n(C2CCCO2)cc1F (stereo unspecified)
23%	Clc1ccc(/C=C/c2ccc3ccccc3n2)cc1Cl
-32%[inhibitor]	O=c1cnc2cnc(N3CCOCC3)nc2n1CCc1ccccc1
?	CC(=O)Oc1ccc2c(c1)CCC1C2CC[C@]2(C)C(OC(C)=O)CCC12 (stereo partly specified)
-39%[inhibitor]	COc1ccc(-c2nc3cnc(Oc4ccccc4)nc3n(Cc3cccs3)c2=O)cc1
-8%	C/C=C(\C)C(=O)OC1[C@@H]2C=C3C4CC(=O)OC(c5ccoc5)[C@]4(C)CCC3[C@@](C)(C2=O)C(C(O)C(=O)OC)C1(C)C (stereo partly specified)

Look-ups from above:
Under EPAC1 ag val, O=c1cnc2cnc(N3CCOCC3)nc2n1CCc1ccccc1 has -32%[inhibitor]
Under EPAC1 ag val, Oc1ccc(-c2nc(-c3ccc(F)cc3)c(-c3ccncc3)[nH]2)cc1 has -2%&10%&7%&-1%
Under EPAC1 ag val, O=c1[nH]c(=O)n(C2CCCO2)cc1F (stereo unspecified) has -11%

More structures:
EPAC1 ag val	canonical_smiles
-17%	CC1(C)CC(C(=O)N2CCOc3ccc(CN4CCC(Oc5cccnc5)CC4)cc3C2)CCO1 (stereo unspecified)
26%	c1nc(N2CCNCC2)c2cc(-c3ccc4c(c3)OCO4)ccc2n1
-121%[inhibitor]	C[C@@H]1[C@H](c2ccccc2)OCCS(=O)(=O)N1Cc1cccc(C(F)(F)F)c1
-4%	COc1cc(O)c(C(=O)c2ccccc2)cc1O
3%	COC(=O)[C@@H]1CCCN1Cc1ccc2c(c1)CN(Cc1coc3ccccc3c1=O)CCO2
2%	CCN(CC)CCc1nc(-c2ccccc2)no1
11%	CC(C)(C)C(=O)OCOC(=O)[C@@H]1N2C(=O)[C@@H](N=CN3CCCCCC3)[C@H]2SC1(C)C
-19%	O=C1CCC[C@@H]2C[C@@]3(C[C@@H]4CCN1[C@H]24)Nc1cc([N+](=O)[O-])ccc1NC3=NC1CCCCC1
-189%[inhibitor]	CC(=O)OC1CC[C@]2(C)C(CC[C@@]3(C)C2C(=O)C=C2C4C(C)C(C)CC[C@@]4(C(=O)O)CCC23C)C1(C)C (stereo partly specified)
-4%&6%	NCCS(=O)O
-1%	COCC1CCCN(Cc2ccc3c(c2)CN(C(=O)c2sc(C)nc2C)CCO3)C1 (stereo unspecified)
-1%	CSCC[C@H](NC(=O)[C@H](Cc1ccccc1)NC[C@@H](NC[C@@H](N)CS)C(C)C)C(=O)O
4%	CS(=O)(=O)Nc1cccc(-c2ccc3ncnc(NC4CCNCC4)c3c2)c1
-39%[inhibitor]	CC(C)=CCOc1ccc(/C=C/C(=O)c2ccc(OCC=C(C)C)cc2OCC(=O)O)cc1
?	O=C(O)C1=CC(=C(c2ccc(O)c(C(=O)O)c2)c2ccc(O)c(C(=O)O)c2)C=CC1=O
-4%	CC(=O)c1ccc(F)c(-c2cc(C)cc3c2OC(CNC(=O)c2cccnc2)C3)c1 (stereo unspecified)
19%	COc1ccccc1CNc1ccnc(-c2ccccc2C(F)(F)F)n1
-10%	CC(C)CNC(=O)c1cn(C2CCN(Cc3nc4ccccc4s3)CC2)nn1
-1%&-13%	CCN1CCCC1CNC(=O)c1cc(S(=O)(=O)CC)ccc1OC (stereo unspecified)
?	CCCC(=O)OC[C@@H](OC(=O)CCC)[C@@H](OC(=O)CCC)[C@H](Cn1c2nc(=O)[nH]c(=O)c-2nc2cc(C)c(C)cc21)OC(=O)CCC
-29%	COc1ccccc1C(=O)O[C@H]1[C@H](Cc2ccccc2)NS(=O)(=O)[C@H]2C[C@@H]3C=C[C@]12O3
?	O=c1ccn(C2OC(COP(=O)(O)OP(=O)(O)OP(=O)(O)O)C(O)C2O)c(=O)[nH]1 (stereo unspecified)
2%	Cn1cnnc1Sc1ccc(CN2CCOc3ccc(C4=CCCCC4)cc3C2)o1
-8%	COC(=O)C1CCN(Cc2ccc3c(c2)CN(C(=O)c2ncc(C)[nH]2)CCO3)CC1
-10%	COC(=O)c1cc(CNC(=O)c2ccc3ccccc3n2)cc(NC(=O)c2cccc(OC)c2)c1
-12%	O=C(NCCc1ccccn1)C1CC12CCN(C(=O)c1ccc(F)cc1Cl)CC2 (stereo unspecified)
6%	Cc1noc(C)c1C(=O)N1CCC[C@@]2(CCN(c3cccc(-c4ccccc4)c3)C2)C1
-25%	Cc1c(C(=O)NCC(C)(C)CN(C)C)cnn1-c1nccc(-c2ccccc2F)n1
-31%[inhibitor]	Cn1cccc1C(=O)N1CCC2(CC1)CCN(c1ccccn1)CC2
12%	COC(=O)c1ccccc1-c1cc(C)cc2c1OC(CNC(=O)C1CCCO1)C2 (stereo unspecified)
-3%	CCC1COCCS(=O)(=O)N1Cc1ccc(F)cc1 (stereo unspecified)
4%	N#CCCn1c(=O)c(-c2cc(F)cc(F)c2)nc2cnc(Oc3ccccc3)nc21
-6%	N#C/C(=C\c1ccc(O)c(O)c1)C(=O)NCCc1ccccc1
-36%[inhibitor]	COc1ncc2nc(C)c(=O)n(CCC#N)c2n1
?	CCNc1ncc2nc(-c3cccs3)c(=O)n(Cc3cccc(OC)c3)c2n1
-11%	NC(Cc1c[nH]c2ccccc12)C(=O)NCC(=O)O (stereo unspecified)
-8%	COc1c2c(nc3ccccc13)OC(C(C)(O)CO)C2 (stereo unspecified)
-8%&-46%	CCN(CC)CCCN(c1ccccc1)C1Cc2ccccc2C1
?	C[C@@H]1CCC(=O)N(CC[C@H](Sc2ccc(Br)cc2)c2ccccc2)CC1
-10%	NC(N)=NCCC[C@H](NC(=O)[C@@H](N)Cc1ccc(O)cc1)C(=O)O
9%	COc1cc(=O)n2c(c1C(=O)NCc1nccs1)CCN(Cc1ccccc1F)CC2
-6%	CC(=O)N[C@H](C(=O)O)C(C)(C)SN=O
-25%	CCCCCCCCCCCCC(=O)N1CCCC[C@H]1CNC(=O)[C@@H](N)CCCCN
-12%	CC(C)N1C[C@@H](NCc2ccccc2O)C[C@H]1C(=O)N1CCN(c2cccc(C(F)(F)F)c2)CC1
?	CC/C(=C/c1ccccc1)c1cc(Oc2ccccc2)cc2oc3ccccc3c12
-6%	O=C(NCC1CCC2(CCN(Cc3cccn3-c3ccc(Cl)cn3)CC2)O1)c1ccccc1 (stereo unspecified)
3%	CCc1cc(S(=O)(=O)O)c2cc(C(C)C)cccc1-2
-15%	CN(C)C(=O)c1ccc(-c2cncnc2NCc2cccnc2)cc1
-40%[inhibitor]	O=C(c1ccco1)N1CCC2(CC1)CCN(c1ccccc1)CC2
4%	COC(=O)C(N)Cc1ccc(Cl)cc1 (stereo unspecified)
4%	CC(O)C(=O)O (stereo unspecified)
?	O=c1[nH]c2ccccc2n1CCCN1CCN(C(c2ccccc2)c2ccccc2)CC1
26%	Cc1noc(C)c1C(=O)N1CCC2(CC1)CCN(c1ccccn1)CC2
-8%	Cn1ccc(C(=O)NCC2CCC3(CCN(Cc4cc(F)cc(F)c4)CC3)O2)n1 (stereo unspecified)
-23%	O=C(Cn1c(=O)sc2ccc(Cl)cc21)N1CCN(CCO)CC1
3%	Cc1cc(C(=O)NCC2Cc3cccc(-c4cncnc4)c3O2)c(C)o1 (stereo unspecified)
-51%[inhibitor]	Cn1cccc1C(=O)N1CCC[C@@]2(CCN(c3ncccn3)C2)C1
5%&4%&6%	Nc1ccc(S(=O)(=O)Nc2ccc(Cl)nn2)cc1
-7%	COC(=O)c1cn([C@@H]2C[C@@H](C(=O)N3CCCCCC3)N(Cc3cc4ccccc4s3)C2)nn1
9%	CC1(S(=O)(=O)O)CC(=O)c2ccccc2C1=O (stereo unspecified)

3 compounds already listed, arranged by molar mass, low to high.
EPAC1 ag val	canonical_smiles
4%	N#CCCn1c(=O)c(-c2cc(F)cc(F)c2)nc2cnc(Oc3ccccc3)nc21
-25%	Cc1c(C(=O)NCC(C)(C)CN(C)C)cnn1-c1nccc(-c2ccccc2F)n1
?	C[C@@H]1CCC(=O)N(CC[C@H](Sc2ccc(Br)cc2)c2ccccc2)CC1

(next part)
EPAC1 ag val	canonical_smiles
-14%	COc1cc(CN2CCC3(CCC(CNC(=O)c4ccccc4)O3)CC2)cc(OC)c1 (stereo unspecified)
-8%	N[C@@H](C(=O)O)[C@@H](CC(=O)O)c1ccc(Cl)cc1
-16%	Cn1cccc1C(=O)N1CCC[C@@]2(CCN(Cc3ccccc3)C2)C1
-19%	CC(NC(=O)C1CCOCC1)c1nnc2n1CCN(Cc1ccc(F)cc1)CC2 (stereo unspecified)
-21%	CC1(C)S[C@@H]2[C@H](NC(=O)C(c3ccccc3)S(=O)(=O)O)C(=O)N2[C@H]1C(=O)O (stereo partly specified)
-5%	O=C(NCC1Cc2cc(-c3cncnc3)cc(Cl)c2O1)c1cccc(Cn2cccn2)c1 (stereo unspecified)
-46%[inhibitor]	O=C(C[n+]1ccccc1Cl)c1ccc(Br)cc1
-9%	CCC1=C[C@@H]2CN(C1)Cc1c([nH]c3ccccc13)[C@@](C(=O)OC)(c1cc3c(cc1OC)N(C)[C@@H]1[C@@](O)(C(=O)OC)[C@H](OC(C)=O)[C@]4(CC)C=CCN5CC[C@]31[C@@H]54)C2
-7%	O=CN1CCc2c([nH]c3ccccc23)C1c1cccc2cccnc12 (stereo unspecified)
-38%[inhibitor]	CN1CCN(c2ncc3nc(-c4cn(C)c5ccccc45)c(=O)n(C)c3n2)CC1
-2%	O=C(NCc1cccnc1)c1cnn(-c2ncc3c(n2)-c2ccccc2CCC3)c1C1CC1
-5%	N[C@@H](CCC(=O)N[C@H](CSN=O)C(=O)NCC(=O)O)C(=O)O
9%	OC(CCCN1CCCCC1)(c1ccccc1)c1ccccc1
-9%	CC(=O)C[C@H]1c2cc(C(F)(F)F)ccc2S(=O)(=O)N1C1CCCC1
-6%&-2%	N[C@H](C(=O)O)[C@@H]1[C@@H](C(=O)O)C1(F)F
?	CC(C)C[C@@H](CO)N1CCN(Cc2cccnc2)CCC1=O
-2%	O=C1c2ccccc2C(=O)C1c1ccc(F)cc1
11%	COc1cc2oc(-c3ccccc3)cc(=O)c2cc1O
-1%	Cc1ncc2c(c1CNC(=O)c1ccccc1F)CCN(C(=O)c1ccccc1-n1cccn1)C2
0%	Cc1cc(-c2ccnc(-n3ncc(C(=O)NCCc4ccncc4)c3C)n2)c(C)s1
2%&5%&11%	CC(=O)OC(C)C[N+](C)(C)C (stereo unspecified)

Molecules above that have a COOH group (13):
EPAC1 ag val	canonical_smiles
-71%[inhibitor]	C[C@]12CCC(=O)C=C1CC[C@@H]1[C@@H]2[C@@H](O)C[C@@]2(C)[C@H]1CC[C@]2(O)C(=O)COC(=O)CCC(=O)O
-189%[inhibitor]	CC(=O)OC1CC[C@]2(C)C(CC[C@@]3(C)C2C(=O)C=C2C4C(C)C(C)CC[C@@]4(C(=O)O)CCC23C)C1(C)C (stereo partly specified)
-1%	CSCC[C@H](NC(=O)[C@H](Cc1ccccc1)NC[C@@H](NC[C@@H](N)CS)C(C)C)C(=O)O
-39%[inhibitor]	CC(C)=CCOc1ccc(/C=C/C(=O)c2ccc(OCC=C(C)C)cc2OCC(=O)O)cc1
?	O=C(O)C1=CC(=C(c2ccc(O)c(C(=O)O)c2)c2ccc(O)c(C(=O)O)c2)C=CC1=O
-11%	NC(Cc1c[nH]c2ccccc12)C(=O)NCC(=O)O (stereo unspecified)
-10%	NC(N)=NCCC[C@H](NC(=O)[C@@H](N)Cc1ccc(O)cc1)C(=O)O
-6%	CC(=O)N[C@H](C(=O)O)C(C)(C)SN=O
4%	CC(O)C(=O)O (stereo unspecified)
-8%	N[C@@H](C(=O)O)[C@@H](CC(=O)O)c1ccc(Cl)cc1
-21%	CC1(C)S[C@@H]2[C@H](NC(=O)C(c3ccccc3)S(=O)(=O)O)C(=O)N2[C@H]1C(=O)O (stereo partly specified)
-5%	N[C@@H](CCC(=O)N[C@H](CSN=O)C(=O)NCC(=O)O)C(=O)O
-6%&-2%	N[C@H](C(=O)O)[C@@H]1[C@@H](C(=O)O)C1(F)F
